Ecoli rRNA inh – inhibitors of bacterial rRNA selective over humanized ribosomes. E. coli WT GFP vs humanized-ribosome RFP mutants, fluorescence, 24 h; hits give low values; DMSO median 0, no signal -100. GFP signal change (wild-type ribosome), % (concentration not given with the values). 350,000 compounds, 1.6% hits;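 active means significant combined selectivity score with lowered wild-type GFP, culture density cut under 30%, mutant RFP and density less affected; inactive means any of these conditions unmet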; further: one replicate is shown; some compounds called inactive have numbers as strong as hits
AF4-AF9 inh – inhibitors of human MLL-AF4/AF9 interaction. P42568. AlphaScreen, biotin-AF4 peptide binding to FLAG-AF9. inhibition, % at 10 µM. 350,000 compounds, 0.47% hits;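 active means every replicate reaching a set inhibition limit, whatever the replicate mean, cut at about 25% in these data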;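 further: 0% = plate neutral control median and 100% = total signal loss; the record names both 10 and 1 µM as test concentration; the first replicate is given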
Target sequence (P42568 whole entry, looked up): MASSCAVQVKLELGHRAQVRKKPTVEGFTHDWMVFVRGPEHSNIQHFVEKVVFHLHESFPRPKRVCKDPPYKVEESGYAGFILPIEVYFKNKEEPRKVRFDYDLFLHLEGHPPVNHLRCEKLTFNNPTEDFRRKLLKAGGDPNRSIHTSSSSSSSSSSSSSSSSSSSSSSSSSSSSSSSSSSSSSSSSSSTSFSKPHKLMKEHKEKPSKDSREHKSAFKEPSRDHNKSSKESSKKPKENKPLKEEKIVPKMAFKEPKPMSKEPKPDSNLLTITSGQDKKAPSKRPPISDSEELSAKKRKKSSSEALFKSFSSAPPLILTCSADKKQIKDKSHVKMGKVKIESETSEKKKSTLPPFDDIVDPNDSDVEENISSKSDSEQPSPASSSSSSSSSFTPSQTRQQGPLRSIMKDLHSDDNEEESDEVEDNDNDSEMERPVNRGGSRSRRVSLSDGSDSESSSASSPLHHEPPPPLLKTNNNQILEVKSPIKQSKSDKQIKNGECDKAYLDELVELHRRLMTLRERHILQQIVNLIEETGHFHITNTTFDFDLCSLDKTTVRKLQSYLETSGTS
Ecoli rRNA inh OD600 – also measured in Ecoli rRNA inh; calls as there; OD600 change, %; measured here: OD600 growth;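 optical density of the mix in the first replicate; 0 = DMSO median and -100 = no signal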
Ecoli rRNA inh RFP – recorded beside Ecoli rRNA inh, whose call it bears; RFP signal change, %; measured here: RFP humanized mutant strains;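 first replicate; 0 = DMSO median and -100 = no signal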
Starred values were filed as active, the others as inactive; & = joins results of further samples. Only part of the results is shown (hit frequency here may not be typical).

Sample of the layout, six compounds:
For CCCC(=O)Nc1ccc2c(c1)C(=O)N(C)[C@H]1CC[C@@H](CC(=O)N3CCCCC3)O[C@@H]1CO2 the results were Ecoli rRNA inh -1, AF4-AF9 inh -2.9, Ecoli rRNA inh OD600 -3 and Ecoli rRNA inh RFP -3.8.
CNC(=O)C[C@@H]1CC[C@@H]2[C@H](COc3ccc(NS(=O)(=O)c4ccccc4C)cc3C(=O)N2C)O1 was read as Ecoli rRNA inh 1, AF4-AF9 inh -1.3, Ecoli rRNA inh OD600 8 and Ecoli rRNA inh RFP -2.1.
`CCCN(C)C[C@H]1Oc2ncc(Br)cc2C(=O)N([C@@H](C)CO)C[C@H]1C` gave Ecoli rRNA inh 0, AF4-AF9 inh -1.7, Ecoli rRNA inh OD600 -8 and Ecoli rRNA inh RFP -3.4.
Screening C[C@@H]1CN([C@H](C)CO)C(=O)c2cc(NS(=O)(=O)c3ccc(Cl)cc3)ccc2O[C@@H](C)CCCCO[C@@H]1CN(C)C(=O)CCCN(C)C returned Ecoli rRNA inh 1, AF4-AF9 inh -2.1, Ecoli rRNA inh OD600 2 and Ecoli rRNA inh RFP -1.2.
Screening CS(=O)(=O)Nc1ccc(-c2cncc3nccn23)cc1 returned Ecoli rRNA inh 21, AF4-AF9 inh -1.9, Ecoli rRNA inh OD600 25 and Ecoli rRNA inh RFP -1.5.
`CC(C)C[C@@H]1COc2cc(F)ccc2S(=O)(=O)N1` gave Ecoli rRNA inh -3, AF4-AF9 inh -1.2, Ecoli rRNA inh OD600 1 and Ecoli rRNA inh RFP 5.6.

The whole of this part, from the first entry:
For CCCC(=O)Nc1ccc2c(c1)C(=O)N(C)[C@H]1CC[C@@H](CC(=O)N3CCCCC3)O[C@@H]1CO2 the results were Ecoli rRNA inh -1, AF4-AF9 inh -2.9, Ecoli rRNA inh OD600 -3 and Ecoli rRNA inh RFP -3.8.
CNC(=O)C[C@@H]1CC[C@@H]2[C@H](COc3ccc(NS(=O)(=O)c4ccccc4C)cc3C(=O)N2C)O1 was read as Ecoli rRNA inh 1, AF4-AF9 inh -1.3, Ecoli rRNA inh OD600 8 and Ecoli rRNA inh RFP -2.1.
`CCCN(C)C[C@H]1Oc2ncc(Br)cc2C(=O)N([C@@H](C)CO)C[C@H]1C` gave Ecoli rRNA inh 0, AF4-AF9 inh -1.7, Ecoli rRNA inh OD600 -8 and Ecoli rRNA inh RFP -3.4.
Screening C[C@@H]1CN([C@H](C)CO)C(=O)c2cc(NS(=O)(=O)c3ccc(Cl)cc3)ccc2O[C@@H](C)CCCCO[C@@H]1CN(C)C(=O)CCCN(C)C returned Ecoli rRNA inh 1, AF4-AF9 inh -2.1, Ecoli rRNA inh OD600 2 and Ecoli rRNA inh RFP -1.2.
Screening CS(=O)(=O)Nc1ccc(-c2cncc3nccn23)cc1 returned Ecoli rRNA inh 21, AF4-AF9 inh -1.9, Ecoli rRNA inh OD600 25 and Ecoli rRNA inh RFP -1.5.
`CC(C)C[C@@H]1COc2cc(F)ccc2S(=O)(=O)N1` gave Ecoli rRNA inh -3, AF4-AF9 inh -1.2, Ecoli rRNA inh OD600 1 and Ecoli rRNA inh RFP 5.6.
CO[C@H]1CC[C@@H]2CCOc3ccc(C#N)cc3C(=O)N(C)[C@@H](C)C(=O)N(C)C[C@H]1O2 was read as Ecoli rRNA inh -3, AF4-AF9 inh 2.5, Ecoli rRNA inh OD600 4 and Ecoli rRNA inh RFP -7.7.
`CO[C@H]1CN(C)C(=O)c2cc(NC(C)=O)ccc2OC[C@@H](C)N(S(=O)(=O)c2cn(C)cn2)C[C@@H]1C` gave Ecoli rRNA inh 2, AF4-AF9 inh -0.9, Ecoli rRNA inh OD600 0 and Ecoli rRNA inh RFP -2.7.
For O=C1[C@H](Cc2ccccc2)NCC=CC[C@@H](c2ccco2)N1Cc1ccccc1 the results were Ecoli rRNA inh 3, AF4-AF9 inh 3.5, Ecoli rRNA inh OD600 6 and Ecoli rRNA inh RFP -4.8.
Screening C[C@H]1CN([C@@H](C)CO)C(=O)Cc2cc(NC(=O)c3ccncc3)ccc2O[C@H]1CN(C)Cc1ccc(C(=O)Nc2ccccc2N)cc1 returned Ecoli rRNA inh -2, AF4-AF9 inh -8.8, Ecoli rRNA inh OD600 -8 and Ecoli rRNA inh RFP -1.6.
C[C@@H]1CN([C@H](C)CO)S(=O)(=O)c2ccc(C#CCN(C)C)cc2O[C@H]1CN(C)C(=O)C1CCC1 was read as Ecoli rRNA inh 5, AF4-AF9 inh -3.2, Ecoli rRNA inh OD600 12 and Ecoli rRNA inh RFP -1.2.
Screening C[C@@H]1CN([C@@H](C)CO)S(=O)(=O)c2ccc(-c3ccccc3F)cc2O[C@@H]1CN(C)C(=O)C1CC1 returned Ecoli rRNA inh 2, AF4-AF9 inh 0.3, Ecoli rRNA inh OD600 -8 and Ecoli rRNA inh RFP 7.5.
For Cc1ccc(S(=O)(=O)Nc2ccc3c(c2)CC(=O)N([C@@H](C)CO)C[C@H](C)[C@@H](CN(C)C(=O)Nc2ccc(F)cc2)O3)cc1 the results were Ecoli rRNA inh -2, AF4-AF9 inh -0.4, Ecoli rRNA inh OD600 -5 and Ecoli rRNA inh RFP -1.6.
`CO[C@H]1CN(C)C(=O)c2ccc(NC(=O)c3cnccn3)cc2OC[C@@H](C)N(C(C)=O)C[C@@H]1C` gave Ecoli rRNA inh 2, AF4-AF9 inh -1.2, Ecoli rRNA inh OD600 5 and Ecoli rRNA inh RFP -3.7.
COc1ccccc1CNC(=O)C[C@@H]1C[C@H]2c3cc(N(C)C)ccc3O[C@H]2[C@H](CO)O1 was read as Ecoli rRNA inh 6&1, AF4-AF9 inh 2.4&4.0, Ecoli rRNA inh OD600 5&-2 and Ecoli rRNA inh RFP 1.1&2.8.
Screening CCC(=O)N1CC[C@@H]2[C@@H](CO)Nc3ccc(C#Cc4ccc(F)cc4)cc3[C@@H]21 returned Ecoli rRNA inh 0, AF4-AF9 inh 6.9, Ecoli rRNA inh OD600 -19 and Ecoli rRNA inh RFP -0.4.
`Cc1ccc(S(=O)(=O)N(C)C[C@@H]2OCCCC[C@@H](C)Oc3ccc(NC(=O)Nc4ccccc4)cc3C(=O)N([C@@H](C)CO)C[C@H]2C)cc1` gave Ecoli rRNA inh 3, AF4-AF9 inh 0.4, Ecoli rRNA inh OD600 8 and Ecoli rRNA inh RFP 1.2.
`O=C(C[C@H]1CC[C@H]2[C@@H](COC[C@H](O)CN2Cc2cccc(C(F)(F)F)c2)O1)NCc1ccc(Cl)cc1` gave Ecoli rRNA inh -56, AF4-AF9 inh 3.8, Ecoli rRNA inh OD600 -78 and Ecoli rRNA inh RFP -8.2.
C[C@@H]1CN([C@H](C)CO)C(=O)c2cccc(NC(=O)C3CCOCC3)c2O[C@@H]1CN(C)Cc1ccc(-c2ccccc2)cc1 was read as Ecoli rRNA inh 0, AF4-AF9 inh 0.8, Ecoli rRNA inh OD600 -3 and Ecoli rRNA inh RFP -3.6.
For CC(C)C#Cc1cnc2c(c1)C(=O)N([C@@H](C)CO)C[C@@H](C)[C@@H](CN(C)S(=O)(=O)c1cn(C)cn1)O2 the results were Ecoli rRNA inh 0, AF4-AF9 inh -1.8, Ecoli rRNA inh OD600 3 and Ecoli rRNA inh RFP 0.2.
For CCCNC(=O)N(C)C[C@H]1Oc2ncc(C3=CCCC3)cc2C(=O)N([C@@H](C)CO)C[C@H]1C the results were Ecoli rRNA inh 3, AF4-AF9 inh -1.8, Ecoli rRNA inh OD600 6 and Ecoli rRNA inh RFP -1.6.
`CCCC(=O)Nc1ccc2c(c1)C(=O)N(C)C[C@H](OC)[C@@H](C)CN(Cc1cncnc1)[C@H](C)CO2` gave Ecoli rRNA inh 3, AF4-AF9 inh -1.1, Ecoli rRNA inh OD600 4 and Ecoli rRNA inh RFP -1.4.
For C[C@@H]1CN([C@H](C)CO)C(=O)c2cc(NC(=O)Nc3ccccc3)ccc2O[C@@H](C)CCCCO[C@@H]1CN(C)Cc1ccncc1 the results were Ecoli rRNA inh -5, AF4-AF9 inh 5.3, Ecoli rRNA inh OD600 -10 and Ecoli rRNA inh RFP -0.6.
For COCC(=O)N1CC(=O)N2[C@H](CO)[C@@H](c3ccc(C#CC4CCCCC4)cc3)[C@H]2C1 the results were Ecoli rRNA inh 3, AF4-AF9 inh 3.7, Ecoli rRNA inh OD600 -1 and Ecoli rRNA inh RFP -2.9.
`CCC(=O)N1CCCC(C)(C(=O)Nc2ccc3oc(CC)nc3c2)C1` (configuration not stated) gave Ecoli rRNA inh -2, AF4-AF9 inh -6.4, Ecoli rRNA inh OD600 1 and Ecoli rRNA inh RFP 0.5.
CN1c2ccc(Br)cc2[C@@H]2[C@@H](CCN2C(=O)Nc2cc(F)ccc2F)[C@@H]1CO was read as Ecoli rRNA inh -6, AF4-AF9 inh 2.2, Ecoli rRNA inh OD600 -50 and Ecoli rRNA inh RFP 5.7.
COc1ccc(NC(=O)N[C@H]2CC[C@H](CCNS(=O)(=O)c3cccc(Cl)c3)O[C@H]2CO)cc1 was read as Ecoli rRNA inh -7, AF4-AF9 inh -0.3, Ecoli rRNA inh OD600 -8 and Ecoli rRNA inh RFP 2.2.
For C[C@H]1CN([C@@H](C)CO)C(=O)Cc2cc(NC(=O)C3CCCCC3)ccc2O[C@@H]1CN(C)S(=O)(=O)c1ccccc1 the results were Ecoli rRNA inh -2, AF4-AF9 inh -2.8, Ecoli rRNA inh OD600 6 and Ecoli rRNA inh RFP -0.2.
`C[C@H](CO)N1C[C@H](C)[C@@H](CN(C)S(=O)(=O)c2cn(C)cn2)Oc2ccc(NS(=O)(=O)c3cn(C)cn3)cc2C1=O` gave Ecoli rRNA inh 5, AF4-AF9 inh -4.5, Ecoli rRNA inh OD600 1 and Ecoli rRNA inh RFP -2.7.
For O=C(NC(=S)N1CCOCC1)c1cn(-c2ccccc2)nc1-c1ccc(F)cc1 the results were Ecoli rRNA inh -5, AF4-AF9 inh 0.3, Ecoli rRNA inh OD600 -5 and Ecoli rRNA inh RFP -1.9.
CO[C@H](CN(C)Cc1cc(F)ccc1F)[C@@H](C)CN(C(=O)Nc1ccc(F)cc1)[C@@H](C)CO was read as Ecoli rRNA inh -5, AF4-AF9 inh -0.7, Ecoli rRNA inh OD600 -4 and Ecoli rRNA inh RFP -4.1.
`COC(=O)C1=CN(c2ccc(F)cc2)C(N)=C(C#N)C1c1cccc(OC)c1OC` (configuration not stated) gave Ecoli rRNA inh 4, AF4-AF9 inh 5.8, Ecoli rRNA inh OD600 2 and Ecoli rRNA inh RFP 3.3.
`O=C(CN1CCOCC1)NCC[C@H]1CC[C@@H](NS(=O)(=O)c2ccc(F)cc2)[C@@H](CO)O1` gave Ecoli rRNA inh 2, AF4-AF9 inh 0.3, Ecoli rRNA inh OD600 3 and Ecoli rRNA inh RFP 0.0.
For C[C@@H](NC(=O)C[C@@H]1CC[C@@H]2[C@H](COC[C@@H](O)CN2C(=O)Nc2ccccc2)O1)c1ccccc1 the results were Ecoli rRNA inh -6, AF4-AF9 inh -2.1, Ecoli rRNA inh OD600 -2 and Ecoli rRNA inh RFP 3.3.
For CN(C)C(=O)C[C@H]1CC[C@@H]2[C@H](COc3ccc(NC(=O)c4cnccn4)cc3C(=O)N2C)O1 the results were Ecoli rRNA inh 6, AF4-AF9 inh 0.8, Ecoli rRNA inh OD600 9 and Ecoli rRNA inh RFP -0.5.
For C[C@@H]1CN([C@H](C)CO)C(=O)c2cc(NC(=O)C3CC3)ccc2O[C@H]1CN(C)S(C)(=O)=O the results were Ecoli rRNA inh 2, AF4-AF9 inh -2.7, Ecoli rRNA inh OD600 -4 and Ecoli rRNA inh RFP 0.3.
CCNC(=O)N(C)c1c(CC)nc2ccc(C(=O)N3CCN(C(=O)c4ccco4)CC3)cn12 was read as Ecoli rRNA inh 9, AF4-AF9 inh -0.4, Ecoli rRNA inh OD600 10 and Ecoli rRNA inh RFP -0.5.
CC(C)C[C@@H]1Cc2[nH][nH]c(=O)c2[C@H](CCc2ccccc2)O1 was read as Ecoli rRNA inh -45, AF4-AF9 inh -12, Ecoli rRNA inh OD600 -80 and Ecoli rRNA inh RFP -16.
Screening C[C@@H]1CCCCO[C@H](CN(C)C(=O)c2ccncc2)[C@H](C)CN([C@H](C)CO)C(=O)c2cc(NC(=O)c3ccncc3)ccc2O1 returned Ecoli rRNA inh -2, AF4-AF9 inh -3.1, Ecoli rRNA inh OD600 4 and Ecoli rRNA inh RFP -0.1.
O=C(Nc1cc(F)ccc1F)N1CC(=O)N2[C@H](C1)[C@@H](c1ccc(-c3cccnc3)cc1)[C@@H]2CO was read as Ecoli rRNA inh -1, AF4-AF9 inh -1.2, Ecoli rRNA inh OD600 -3 and Ecoli rRNA inh RFP -0.3.
Screening Cc1ccc2nc(-c3cccc(Br)c3)c(Cc3ccccc3)n2c1 returned Ecoli rRNA inh -1, AF4-AF9 inh 0.6, Ecoli rRNA inh OD600 -2 and Ecoli rRNA inh RFP 4.8.
For CCC(=O)N(C)C[C@H]1Oc2cc(C#CC(C)C)ccc2S(=O)(=O)N([C@@H](C)CO)C[C@H]1C the results were Ecoli rRNA inh -1, AF4-AF9 inh -0.9, Ecoli rRNA inh OD600 7 and Ecoli rRNA inh RFP 0.8.
For C[C@@H]1CN([C@H](C)CO)C(=O)c2cc(-c3ccncc3)cnc2O[C@H]1CN(C)C(=O)Nc1ccc2c(c1)OCO2 the results were Ecoli rRNA inh 0, AF4-AF9 inh 1.8, Ecoli rRNA inh OD600 -3 and Ecoli rRNA inh RFP 1.6.

Source: PubChem
